TRPV1 PAM: enhances activation of the human vanilloid receptor TRPV1 | AID 540277 | potentiation, % at 8.33 µM | hit rate 0.02% among 320,000 | TRPV1-expressing cells, Fluo-8 calcium influx, capsaicin EC20 potentiation; host cell line not named in the record; control for the full effect not named in the record; active means potentiation above 80%; inconclusive means 30% to 80%; inactive means below 30%; also: 0% is about no effect
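Cells expressing TRPV1 were dye-loaded with Fluo-8 and read kinetically: 10 s baseline, 3 min after compound (agonist portion), then 2 min after EC20 capsaicin (allosteric enhancer portion). Calcium-bound dye fluorescence at 480/520 nm.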
gsp antagonist: gsp mutant antagonism; Potency, µM (highest dose often 76.9 µM), inactives show top-dose activity change, negative = inhibition, hits mostly inhibitors; hit rate 0.4% among 340,000; gsp-mutant cells, cAMP HTRF, 30 min; control for the full effect not named in the record; active = falling curve of any shape with a large fitted effect; inconclusive = falling curve, mostly with a smaller effect; inactive = flat or rising curve; cell line not stated here;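 also: intracellular cAMP measured with PDE inhibitor Ro 20-1724 present during compound exposure; potency is read from the fitted curve at half-maximal effect; % is scaled to controls: 0 for no effect and ±100 for the full control effect; nearly all actives have a fitted effect of over 65% in size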
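HTRF cAMP read-out (cAMP-d2 plus anti-cAMP antibody-K in lysis buffer, 30 min RT). Before lysis, cells are exposed to compounds with […] for 30 min at 37C in DPBS containing Ca/Mg, BSA and Tween 20.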
ClpP mod: qHTS Assay for Activators of ClpP; hit rate 1.9% among 340,000; purified B. subtilis ClpP, FRET peptide cleavage, 20 min; AID 651965, 2013; Potency, µM (doses to about 57.5 µM), without a hit: top-dose activity change, negative = active; active = well fitted falling curve with a large enough effect; inconclusive = small, poorly fitted or top-dose-only effect; inactive = no such curve, though single readings can be large or run the other way; also: potency is read from the fitted curve at half-maximal effect; the source files actives as falling curves though it sought activators and does not explain the sign; nearly all actives have a fitted effect of over 65% in size; many hits overshoot -100%
Target sequence (P80244 whole entry, looked up): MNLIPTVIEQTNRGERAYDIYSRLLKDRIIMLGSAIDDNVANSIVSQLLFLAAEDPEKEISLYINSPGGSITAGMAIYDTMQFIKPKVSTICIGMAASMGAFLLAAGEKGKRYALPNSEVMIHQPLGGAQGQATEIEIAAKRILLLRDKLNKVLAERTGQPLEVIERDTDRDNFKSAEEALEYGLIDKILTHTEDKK
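Purified B. subtilis ClpP, 10 microg/mL final in Tris/HCl pH8 with KCl, BSA, glycerol and Tween-20, cleaved an Abz/nitrotyrosine-quenched decapeptide. Fluorescence (ex 320, em 430) was read at 0 and 20 min at room temperature. Delta was normalized to 5.8 microM ADEP and DMSO/no-enzyme controls.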
Sfp inh: inhibitors of Bacillus subtilis Sfp phosphopantetheinyl transferase; Q9F4F7; Biochemical Sfp PPTase activity, qHTS; Potency, µM, without a hit: max response, negative = inhibition, usual class: inhibitors; hit rate 3.5% among 310,000; AID 1490; active = well fitted inhibition curve with a large enough effect; inconclusive = small, poorly fitted or top-dose-only effect, or another doubt; inactive = no such curve, though single readings can be large or run the other way;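 also: the enzyme is Sfp with the accession as filed and its product quenches rhodamine fluorescence; potency is read from the fitted curve at half-maximal effect; 0% = enzyme reaction without inhibitor and -100% = no enzyme wells; top concentration of the series not given in the record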
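Fluorescence-quenching assay: 15 nM Sfp-PPTase preincubated 15 min at room temperature with compound, then 5 uM rhodamine-CoA and 12.5 uM BHQ-2-labelled YbbR peptide added. Fluorescence (ex 525/em 598 nm) read at start and after 30 min; difference gives rate.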
Menin MLL FP FL: inhibitors of human menin-MLL interaction, wild-type MLL peptide; FP activity change, % at 61.4 µM; Fluorescence polarization, fluorescein-MLL peptide displacement from menin; 290,000 tested, under 10 active; inconclusive = falling polarisation curve, or a change in total fluorescence; inactive = total fluorescence flat and polarisation flat or rising; no compound was filed as active; the % refers to the polarisation; negative = inhibition;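 also: % of control where 0% means no effect; inhibitors lower the polarisation; unlabelled MLL peptide was the positive control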
gsp agonist: activates gsp, the McCune-Albright syndrome mutation; AID 624287; Potency, µM (top dose mostly 76.9 µM), for inactives: at the top dose activation (cAMP increase), usual class: activators; gsp mutant cells, cAMP HTRF, 30 min; control for the full effect not named in the record; hit rate 0.13% among 340,000; active = well fitted activation curve with a large enough effect; inconclusive = small, poorly fitted or top-dose-only effect, or another doubt; inactive = no such curve, though single readings can be large or run the other way; cell line not stated here;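 also: phosphodiesterase inhibitor Ro 20-1724 added with compounds to block cAMP breakdown; potency is read from the fitted curve at half-maximal effect; nearly all actives have a fitted effect of over 60% in size; about a fifth of the inactives were tested at one dose only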
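Cells in DMEM/10% FBS with G418 were pretreated with compounds in DMSO plus […] (300 uM stock) for 30 min at 37C. cAMP was measured by HTRF (cAMP-d2 plus anti-cAMP antibody-K) after 30 min at room temperature.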
D2 PAM: positive allosteric modulators of human D2 dopamine receptor; P14416; DiscoveRx D2 beta-arrestin cells, luminescence, 90 min; 100% = 57 uM dopamine signal; potentiation, % (concentration not given with the values); hit rate 0.23% among 360,000; AID 624464; active = potentiation of 50% or more; inconclusive = 30% to 50%; inactive = 30% or less;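 also: compound concentration not given in the record; tested on top of an EC20 dose of dopamine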
Target sequence (P14416 whole entry, looked up): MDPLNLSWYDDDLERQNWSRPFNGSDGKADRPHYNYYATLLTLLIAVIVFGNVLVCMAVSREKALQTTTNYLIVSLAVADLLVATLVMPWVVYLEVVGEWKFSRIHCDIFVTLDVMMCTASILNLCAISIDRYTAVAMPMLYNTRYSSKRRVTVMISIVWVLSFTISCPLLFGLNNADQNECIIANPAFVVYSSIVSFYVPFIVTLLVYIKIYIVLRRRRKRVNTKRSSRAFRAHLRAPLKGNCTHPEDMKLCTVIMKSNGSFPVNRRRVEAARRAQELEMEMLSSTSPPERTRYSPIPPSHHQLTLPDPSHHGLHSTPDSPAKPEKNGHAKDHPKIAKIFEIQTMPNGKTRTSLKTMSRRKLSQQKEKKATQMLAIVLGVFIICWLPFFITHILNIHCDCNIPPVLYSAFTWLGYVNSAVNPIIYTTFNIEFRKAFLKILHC
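D2 cells co-treated with compound plus 50 nM dopamine (EC20) for 90 min at 37 deg C to detect potentiation. Beta-arrestin recruitment was read as enzyme-fragment luminescence after 1 h at ambient temperature. Full response was set by 57 uM dopamine.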
* marks the source's active call; other numbers are inactive results; ? = inconclusive; . = not tested or not shown; [ ] = dose if it differs, or a comment.

SMILES	gsp antagonist	gsp agonist	TRPV1 PAM	Sfp inh	Menin MLL FP FL	D2 PAM	ClpP mod
COc1ccccc1C(=O)NC(=O)CSc1nncn1C	1%	6%	-9	.	.	-8	-1.7%
CC1CCN(S(=O)(=O)c2ccc(Cl)s2)CC1	-1%	.	.	.	.	-9	-0.8%
CCc1ccc(NC(=O)COC(=O)/C=C/c2ccco2)cc1	5%	-19%	.	.	.	-14	-2.2%
O=C(c1ccccc1F)N1CCN(c2cnn(-c3cccc(Cl)c3)c(=O)c2Cl)CC1	-28%	11%[15.4 µM]	6	11%	-2.1	-1	.
CCn1ncc(/C=N\NC(=O)c2csc3ccccc23)c1C	9%	5%	-26	17%	0.2	-10	-3.4%
Cc1ccc(S(=O)(=O)N2CCN(C(=O)COC(=O)Cc3cccc(C(F)(F)F)c3)CC2)c(C)c1	17%	-2%	2	.	.	21	0.9%
Cc1ccc2c(c1)N(C(=O)CCC(=O)NCCN1CCOCC1)CC(C)O2 (stereo unspecified)	4%	30%	1	5%	-0.5	-4	0.2%
C=CCn1c(SCC(N)=O)nc2nc3c(cc2c1=O)COC(C)(C)C3	-1%	-7%[15.4 µM]	-14	15%	-2.2	4	.
Cc1ccc2nsnc2c1NC(=O)COc1ccccc1F	-3%	-3%[15.4 µM]	-4	12%	-0.2	-10	.
Cc1ccc(CN2CCN(C/C(Cl)=C/c3ccccc3)CC2CCO)o1 (stereo unspecified)	1%	-17%	-6	11%	2.6	-3	-0.5%
CN(Cc1cccs1)S(=O)(=O)c1ccc(Cl)cc1F	7%	9%	-5	.	.	-1	0.3%
COC(=O)c1c(C)oc(C)c1S(=O)(=O)N(Cc1ccccc1)C(C)C	-1%	12%[15.4 µM]	-15	-7%	1.2	-6	-4.0%
CC(C)(C)OC(=O)N1CCC(C(=O)O)CC1	13%	?	8	-4%	-0.7	-17	-1.8%
CC(Sc1nc(N)cc(=O)[nH]1)C(=O)Nc1nc2c(s1)CCCC2 (stereo unspecified)	-14%	12%	-6	0%	.	1	.
S=C(c1ccc2c(c1)OCO2)N1CCN(c2cccc(Cl)c2)CC1	7%	26%	.	.	.	-8	.
O=C(CNC(=O)c1ccc(Cl)cc1)OCn1nnc2ccccc2c1=O	-4%	-2%	3	.	.	-7	-3.1%
NC(=O)c1cc(S(=O)(=O)NCCCc2ccco2)cs1	-3%	-4%	-3	15%	-2.4	-6	-0.6%
CCOc1ccc(-c2nnc3sc(COc4ccccc4)nn23)cc1	11%	?	-11	17%	6.0	-3	-0.1%
C/C(=N\NC(=S)NC1CCCCC1)c1cccs1	-13%	6%[15.4 µM]	-14	8%	-0.4	-37	1.2%
Cc1nnc(N2CCOCC2)c2ccccc12	-2%	-11%	-12	14%	4.3	-26	0.5%
COCC(C)n1c(C)cc(C(=O)CSc2ncccn2)c1C (stereo unspecified)	8%	12%[15.4 µM]	3	-7%	-6.0	0	.
CCOc1cc(/C=N\Nc2ccc([N+](=O)[O-])cc2)ccc1OCC(=O)Nc1ccc(C)c(C)c1	-7%	2%	.	-10%	4.6	0	0.4%
Cc1cc(Cl)ccc1OCC(=O)N1CCCCC1	3%	-21%	-11	19%	5.0	-3	0.2%
CCOC(=O)c1cc(C#N)c(SCC(=O)O)[nH]c1=O	-6%	-4%[15.4 µM]	2	50µM*	?	1	.
COc1ccc(-c2nnc3ccc(SCC(N)=O)nn23)cc1OC	3%	?	10	14%	2.3	-1	-1.0%
CC(C)CCNC(=O)NC(=O)CSc1nnc(-c2ccccc2Br)o1	-10%	-4%	10	-2%	3.7	-8	-0.2%
O=C(Nc1ccc(Nc2ccccc2)cc1)c1ccco1	-14%	15%	-11	-2%	1.2	24	-1.3%
COc1ccc(-c2noc(=O)n2Cc2ccccc2Cl)cc1	?	9%[15.4 µM]	-7	20%	7.7	3	-1.0%
Cc1ccc(C(=O)N/C(=C\c2cn(S(=O)(=O)N(C)C)c3ccccc23)C(=O)NCCCN2CCOCC2)cc1	0%	21%	-11	-7%	1.1	-32	-5.5%
CCOP(=O)(OCC)C(O)c1cc(OC)c(OC)c(OC)c1 (stereo unspecified)	13%	-9%	-2	10%	-4.4	-6	-18%
O=c1oc2ccccc2n1CCn1c2ccccc2c2nc3ccccc3nc21	?	5%	?	15%	6.7	-8	1.2%
C=CCN(CC=C)C(=O)Nc1ccc2nc(C)sc2c1	-4%	27%	0	6%	0.2	-2	.
Cc1ccc(-n2ncc3c(=O)n(CC(=O)N(C)C)cnc32)cc1C	-2%	-2%	?	33%[activator]	0.9	2	.
CN(C(=O)CCN1C(=O)c2ccccc2C1=O)c1ccccc1	0%	?	5	13%	3.2	16	0.3%
O=c1[nH]nc(N/N=C/c2ccccc2OC(F)F)c(=O)[nH]1	-7%	0%	18	-9%	-1.9	-8	-0.7%
O=C(NCCOc1ccc(Cl)cc1)C1CC(=O)N(c2ccc3c(c2)OCCO3)C1 (stereo unspecified)	1%	?	2	.	.	-2	-2.6%
Cc1ccc(C2Nc3ccccc3C(=O)N2CCCN2CCOCC2)cc1 (stereo unspecified)	-6%	0%	15	-10%	0.2	-19	3.9%
O=C(NN1C(=O)c2ccccc2NC1c1cccnc1)c1ccc([N+](=O)[O-])cc1 (stereo unspecified)	7%	-11%	-5	-10%	-5.4	-1	-2.6%
Cc1cc(NS(=O)(=O)c2ccc(NC(=O)/C=C/c3ccccc3)cc2)nc(C)n1	-15%	0%[15.4 µM]	.	.	.	4	1.0%
CN(Cc1nc(-c2cnccn2)no1)CC(O)c1ccccc1 (stereo unspecified)	16%	-7%[15.4 µM]	1	21%	-0.3	8	.
CCCCCCCNC(=O)C1(CC2CC(c3ccc(Cl)cc3)=NO2)CCN(C(=O)C2CCCC2)CC1 (stereo unspecified)	-16%	.	-13	11%	1.6	-12	-4.1%
Cc1ccc(-c2ccc(CN3C(C(C)C)C(=O)N(Cc4cn(CC5CCCCC5)nn4)CCS3(=O)=O)cc2)cc1 (stereo unspecified)	.	-36%[inhibitor]	.	.	.	-10	-4.6%
O=C(CC1N=C2c3ccccc3N=C(SCc3ccc(F)cc3)N2C1=O)NCc1ccco1 (stereo unspecified)	3%	?	3	?	-1.4	5	-21%
CC(=O)Nc1ccc(S(=O)(=O)N2CCN(Cc3csc(C)n3)CC2)cc1	14%	-32%[inhibitor]	-1	-8%	-1.4	53*	1.9%
Cc1ccccc1C1NC(c2ccccc2C)C(C)C(=O)C1C (stereo unspecified)	-17%	26%	-3	-3%	1.1	8	-0.5%
Cc1cc(C)cc(N(C(=O)c2csnn2)C(C(=O)NC(C)(C)C)c2cccnc2)c1 (stereo unspecified)	9%	-1%	-6	18%	1.2	-4	.
CCOC(=O)C(c1ccccc1)C(Nc1cc(C(F)(F)F)cc(C(F)(F)F)c1)c1ccccn1 (stereo unspecified)	-5%	2%[15.4 µM]	1	7%	1.4	-3	-2.1%
Cn1c(=O)c(=O)n(C)c2cc(S(=O)(=O)N3CCCC3C(=O)NCc3cccs3)ccc21 (stereo unspecified)	15%	4%[15.4 µM]	4	24%	0.8	1	.
COc1ccc(CCNC(=O)c2cccc(NS(=O)(=O)c3ccccc3F)c2)cc1OC	-16%	-24%	4	10%	-1.1	-13	1.9%
COc1cc(/C=C2/C(=O)ON=C2c2ccccc2)ccc1O	-19%	-8%	-3	50µM*	20	-7	-0.7%
O=C(COC(=O)c1ccc(O)cc1O)NC(=O)Cc1ccccc1	5%	2%[15.4 µM]	.	.	.	-3	.
Cc1nc(NC2=NC(C(=O)Nc3ccc(Cl)cc3)CC(=O)N2)nc2ccccc12 (stereo unspecified)	.	.	?	-5%	4.6	.	.
O=C(Nc1nnc(C2CC2)s1)C1=NN(C2CCS(=O)(=O)C2)C(=O)CC1 (stereo unspecified)	3%	-45%[inhibitor]	-5	7%	-5.6	2	-0.2%
Cc1c(C(=O)Nc2ccccc2F)sc2ncn(CC(=O)N3CCOCC3)c(=O)c12	-13%	23%	-5	9%	1.3	-11	-0.4%
CCCCn1nc(CC(=O)NCCN(CC)CC)c2ccccc2c1=O	-4%	1%	17	0%	-2.4	-4	.
Cc1cc(NC(=O)COC(=O)Cn2c(C)csc2=O)ccc1Br	-4%	-35%[inhibitor]	3	-4%	.	-1	0.4%
COc1ccc2cc(C3=CC(=O)C[C@H](c4ccc5c(c4)OCO5)C3)ccc2c1	-4%	-1%	0	.	.	-10	-8.9%
O=C(c1c(F)cccc1F)N(Cc1cccs1)C1CCCC1	5%	19%	1	13%	-1.1	-9	0.1%
C1CN=C(NC23CC4CC(CC(C4)C2)C3)C1	15%	16%	-2	10%	1.7	-3	-1.2%
CCOc1ccc(C(=O)Nc2ccc(N3CCCC3)cc2)cc1	3%	13%	-5	?	4.0	-1	-13%

The results go on:
SMILES	gsp antagonist	gsp agonist	TRPV1 PAM	Sfp inh	Menin MLL FP FL	D2 PAM	ClpP mod
Cc1cccc(C)c1OCc1cc(C(=O)N2CCCCCCC2)no1	-11%	-7%[15.4 µM]	-11	0%	.	10	.
O=C(Nc1ccccc1Cl)/C(Cl)=C(\Cl)S(=O)c1ccccc1 (stereo unspecified)	-6%	-1%[15.4 µM]	-7	6.3µM*	-2.5	-5	.
CCCC(=O)Nc1ccc2c(c1)Cc1ccccc1-2	2%	-4%	-7	16%	0.3	-2	0.0%
Cc1cc(Cl)c2oc(C(=O)NCCN3CCCCC3CO)c(C)c2c1 (stereo unspecified)	-10%	1%	-5	6%	-1.0	-19	-7.3%
Cc1cc(C)c2c(CN3CC(C)OC(C)C3)cc(=O)oc2c1C (stereo unspecified)	-12%	5%	-18	8%	-0.4	-1	.

Bioassay records as filed in PubChem BioAssay.
